Mtb hypoxia inh: inhibitors of hypoxia-regulated fluorescent reporter in Mycobacterium tuberculosis. M. tuberculosis hypoxia-regulated fluorescent reporter, fluorescence. fluorescence inhibition, % (test concentration not listed). 300,000 compounds, 0.1% hits. AID 1159583;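 active means 35 to 45% if threefold the growth effect, above 45% if 1.5-fold the growth effect; inactive means the rest, general growth blockers included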;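 further: wells of about 50 µL received 100 nL stock; 0% = vehicle wells and 100% = reference inhibitor wells; whole bacteria with a GFP reporter of the hypoxia response; strong numbers were not always called active; many hits fall short of the cut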
BJeLR viability: BJeLR cell viability loss | BJeLR (HRASV12) viability, CellTiter-Glo ATP luminescence, 48 h; reference of the scale not given here | 300,000 compounds, 0.17% hits | inhibition, % (no concentration beside the values);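 active means replicate mean above 50%; inconclusive means above 50% but judged a plate artefact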;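 further: 50 nL library stock added to about 25 µL; numbers are from one replicate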
PrP UTR inh: suppresses PrP 5' UTR mRNA reporter expression | cell-based PrP 5' UTR mRNA reporter, plate reader | inhibition, % (concentration not given with the values) | 340,000 compounds, 0.35% hits | AID 488862;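 active means every replicate at 50% or more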;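 further: 0 = median of the neutral control wells; tested in H4 reporter cells; numbers are from one replicate; inactives centre near -14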
Autofluor counter: compound fluorescence in toxin protease inhibitor counterscreen. 360,000 compounds, 3.1% hits. compound autofluorescence counterscreen, microsphere flow cytometry; active compounds read high. fluorescence intensity (concentration not given with the values);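 active means at least 3 SD above the mean of all compounds, about 16000 in these data; inconclusive means too few beads counted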;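 further: 100 nL of 1 mM stock went into each well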
RN4220 kill: kills Staphylococcus aureus RN4220. AID 1259311. inhibition, % (concentration not given with the values). 330,000 compounds, 0.33% hits. S. aureus RN4220 growth, OD600, 16 h;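 active means z-score of -3 or lower and OD600 up to 0.18 on both plates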;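 further: plate controls were untreated cells for no effect and reference antibiotic for full effect; stock transfer was 100 nL into about 80 µL; one replicate is shown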
ugtP null kill: growth inhibition of S. aureus ugtP deletion strain; S. aureus RN4220 ugtP deletion, OD600 growth, 16 h; some inactives read as strong as hits; growth inhibition, % (no concentration beside the values); 330,000 compounds, 0.54% hits; AID 1259309;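 active means z-score under -3 and OD600 up to 0.15 on both plates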;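 further: plate controls were untreated wells for no effect and antibiotic for full effect; wells of about 80 µL received 100 nL stock; the first replicate is given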
Mtb hypoxia inh growth: further read-out of Mtb hypoxia inh, marked with its call; growth inhibition, %; measured here: M. tuberculosis growth (absorbance);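 0% = vehicle and 100% = reference antibiotic; read after six days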
* = called active by the depositor; ? = inconclusive; / = no result given. Outcome played no part in choosing rows. Share with any hit: about 4%.

Molecule,Mtb hypoxia inh,Mtb hypoxia inh growth,BJeLR viability,PrP UTR inh,Autofluor counter,RN4220 kill,ugtP null kill
COc1cc(CC2COC(c3ccc(O)c(OC)c3)C2COC(C)=O)ccc1O (configuration not stated),/,/,/,-16,5373,1.9,-11
COC(=O)c1sc(N2C(=O)C(O)=C(C(=O)c3ccc(C)o3)C2c2ccco2)nc1C (configuration not stated),5,-8,-2,-19,6254,6.9,17
CC(C)n1c(-c2ccncc2)n[nH]c1=S,11,12,-1,-20,3285,4.3,6
CCOC(=O)c1c(C)n(-c2ccc(C)cc2)c2ccc(O)c(CN(C)C)c12,/,/,/,-29,2223,-3.3,-64
O=C(c1ccc(F)cc1)C1CCN(C(=O)c2ccc(F)cc2)CC1,24,15,0,-27,3719,3.1,8
CCOc1cc(C(=O)NCCc2ccc(S(N)(=O)=O)cc2)cc(OCC)c1OCC,-1,1,-4,-21,4462,12,2
Cc1cc(CNC(=O)c2cccnc2Cl)c2ccccc2n1,12,8,0,-8,3044,4.4,4
COc1ccc2c(C)cc(SCC(=O)Nc3cc(C(N)=O)cc(C(N)=O)c3)nc2c1,0,-3,-6,1,?,5.2,17
CC[C@H]1C/C=C\Cc2ccccc2[C@H](C(=O)C[C@@H](O)CC(C)=O)OC1=O,-6,5,/,-5,3584,5.3,2
CCn1c(NCc2cccs2)nc2ccccc21,/,/,0,-2,3704,0.3,6
CCn1c(/C=C/c2ccccc2)nc2ccccc2c1=O,/,/,5,6,1969,/,/
CCOCCCN(C)C1CCN(S(=O)(=O)c2csc(C(N)=O)c2)CC1,9,0,10,-23,4442,1.4,3
O=C(NN=CC1CC=CCC1)c1ccc(O)cc1O (configuration not stated),0,5,/,/,/,2.8,-3
O=C(NC1CCCC1)C(c1cccnc1)N(C(=O)c1csnn1)c1ccc(F)cc1 (configuration not stated),-6,-5,3,5,3683,2.8,8
Cc1ccc(-c2nc(CN3CCN(c4cnccn4)CC3)c(C)o2)o1,10,3,7,-7,4374,4.4,6
Cc1ccc(-c2c(C(=O)N3CCOCC3)oc(=O)c3ccccc23)cc1,/,/,1,-6,4092,-0.3,7
COCCNS(=O)(=O)c1ccc(SC)cc1,2,3,-18,-8,9572,0.5,5
CNC(=S)n1cnc(N)n1,2,-1,6,-28,3494,1.7,3
CCOc1ccc(N(CC(=O)NN=C2CCN(C)CC2)S(=O)(=O)c2ccc(Br)cc2)cc1,5,2,7,-15,5942,-0.9,13
CC(=O)N(c1ccccc1)c1nc(C)cc(C)c1C#N,/,/,-5,-12,4771,0.7,0
CCOc1ncccc1C(=O)OCCCC(=O)c1ccc(Br)cc1,7,-18,/,-42,4240,9.4,7
CC1(C)Cc2c(sc3[nH]c(=S)n(Cc4ccccc4)c(=O)c23)CO1,10,-3,12,-13,9674,20,7
COC(=O)c1c(NC(=O)c2ccccc2F)sc(C(=O)N2CCOCC2)c1C,0,8,7,-18,3984,7.4,2
NC(=O)c1ccsc1NC(=O)COC(=O)c1cc(Cl)ccc1O,3,7,8,-17,6540,0.9,-8
CCOc1ccc(NCc2nnc(SCC(=O)Nc3cc(C)on3)n2-c2ccccc2OC)cc1,10,14,4,-3,14824,1.6,-3
Cn1c(NN)nc2ccccc2c1=O,-1,1,/,-30,3532,3.6,-7
S=C(Nc1ccccc1)N1CCOCC1,6,8,-7,-8,2526,0.7,3
COc1ccc(C(=O)Nc2cc(C)nn2-c2ccc(F)cc2)cc1,18,3,0,-19,3456,1.4,4
CCCn1c(C(C)Nc2nc(-c3ccc(C)cc3)cs2)nc2cc(Cl)c(Cl)cc21 (configuration not stated),2,3,9,-16,3494,-5.0,0
COc1cccc(C(=O)NC2CCCc3ccccc32)c1 (configuration not stated),8,0,4,-16,2923,0.1,4

Additional structures.
Molecule,Mtb hypoxia inh,Mtb hypoxia inh growth,BJeLR viability,PrP UTR inh,Autofluor counter,RN4220 kill,ugtP null kill
CC(C)c1cc(C(=O)NN=Cc2cccnc2)cs1,-3,-3,/,/,/,3.4,-1
CCCc1cc(=O)oc2cc(C)cc(OCC(=O)NC(Cc3ccc(Cl)cc3)C(=O)O)c12 (configuration not stated),/,/,-9,-7,5271,-2.1,-18
CN(C)CCCNc1ncnc2scc(-c3ccccc3)c12,11,15,12,-12,4513,14,6
Nc1nnc(CSCc2ccc(Cl)cc2Cl)s1,0,-4,3,-3,2143,0.9,-1
Cc1cc(C)nc(-n2nc(C)cc2NC(=O)CN2CCC(C)CC2)n1,11,11,-3,-23,8072,1.9,9
CCOC(=O)c1ccc(N2C(=O)C=C(N3CCOCC3)C2=O)cc1,2,-8,7,0,2987,0.6,-4
O=C(NNC(=O)c1ccccc1F)c1ccc2nc[nH]c2c1,-1,0,-7,-41,5563,-0.7,-3
O=C(/C=C/Nc1ccccc1Br)c1ccccn1,/,/,25,89*,2442,/,/
O=C(COC(=O)c1ccc2[nH]c3c(c2c1)CCCC3)NC1CCS(=O)(=O)C1 (configuration not stated),13,3,3,-10,3743,2.1,2
COc1ccccc1N1CC(C(=O)Nc2cc(C(F)(F)F)ccc2N2CCCC2)CC1=O (configuration not stated),2,6,0,-21,4741,1.7,9
CCOCCCNC(=S)N1CCN(C(=O)C(=O)Nc2ccc(C(=O)OC)cc2)CC1,-3,13,-8,-14,2467,7.1,2
Nc1cccc2c1C(=O)N(Cc1nnc(-c3ccccc3Br)o1)C2=O,/,/,-7,-96,5559,/,/
CC1CCc2c(sc(N=CN(C)C)c2C#N)C1 (configuration not stated),10,7,/,/,/,3.8,-8
COc1ccc(C(=O)c2cc3cccc(OC)c3o2)cc1,0,2,2,-118,4278,11,-1
CCOC(=O)C1CCN(C(=O)CN2C(=O)NC(C)(c3ccc4cc(OC)ccc4c3)C2=O)CC1 (configuration not stated),0,4,/,1,4073,1.6,4
CS(=O)(=O)Nc1ccc(C(=O)Nc2ccc3c(c2)OCO3)cc1,-3,6,6,-8,2213,1.2,4
C/C(=N\NC(=O)c1cccc(F)c1)c1ccc(Br)s1,/,/,-1,10,10567,/,/
O=C(CN1CCN(c2ncc(C(F)(F)F)cc2Cl)CC1)NCCNc1ncc(C(F)(F)F)cc1Cl,8,9,-10,-11,3252,-7.6,14
COc1ccc(C(=O)NCCc2c[nH]c3ccccc23)cc1OC,/,/,-2,-37,3257,/,/
Cc1noc(C)c1COC(=O)c1cc2c3ccccc3n(C)c2s1,2,9,/,-1,3020,5.7,-7
Cc1cc(C)n(C(=O)C(C(=O)c2ccccc2)C(C)C)n1 (configuration not stated),8,6,-1,-15,2298,4.8,12
C/C(=N\NC(=O)CN1CCCCC1)c1cccc([N+](=O)[O-])c1,/,/,3,-36,6528,/,/
Cc1cnc(-c2nnc(N(C)C(=O)C3CCCO3)s2)cn1 (configuration not stated),/,/,5,-10,4660,-2.2,-9
CN1C(=O)CC(Sc2ccccc2C(=O)O)C1=O (configuration not stated),10,3,3,/,7781,0.7,5
CCOC(=O)CNC(=O)c1cc(-c2ccc3c(c2)OCCO3)oc1C,9,7,6,-51,3619,7.1,6
COc1ccc(-c2noc(CCC(=O)Nc3nc4ccccc4s3)n2)cc1,/,/,6,/,/,0.6,-13
COc1cc(-c2noc(-c3cccs3)n2)cc(OC)c1OC,8,9,-4,-24,20254*,8.5,8
CCSc1ncc(Cl)c(C(=O)Nc2ccccc2Cl)n1,16,7,3,-14,4050,5.9,8
Cc1ccc(CNC(=O)C2CCN(S(=O)(=O)N3CCOCC3)CC2)cc1,3,8,3,-20,11063,2.3,5
CN(C)CCCN(C(=O)c1ccc(S(=O)(=O)N2CCc3ccccc3C2)cc1)c1nc2c(F)cc(F)cc2s1,13,5,12,-14,4461,-1.2,-2

3 entries already listed, sorted by molecular weight, smallest number first:
Molecule,Mtb hypoxia inh,Mtb hypoxia inh growth,BJeLR viability,PrP UTR inh,Autofluor counter,RN4220 kill,ugtP null kill
Nc1nnc(CSCc2ccc(Cl)cc2Cl)s1,0,-4,3,-3,2143,0.9,-1
CCOC(=O)c1ccc(N2C(=O)C=C(N3CCOCC3)C2=O)cc1,2,-8,7,0,2987,0.6,-4
CCOCCCNC(=S)N1CCN(C(=O)C(=O)Nc2ccc(C(=O)OC)cc2)CC1,-3,13,-8,-14,2467,7.1,2

Continuation:
Molecule,Mtb hypoxia inh,Mtb hypoxia inh growth,BJeLR viability,PrP UTR inh,Autofluor counter,RN4220 kill,ugtP null kill
COc1ccc(C(=O)NCCS(=O)(=O)NCc2ccc(C)cc2)cc1,-5,13,-6,-15,/,4.3,6
Cn1c(CC(=O)Nc2ccccc2)nnc1SCC(=O)c1ccccc1,/,/,-3,-14,2077,0.6,-8
COC(=O)C1=C(c2cccc(C#N)c2)CC2CCC1N2C(=O)NC1CCCCC1 (configuration not stated),4,9,/,/,/,2.3,2
COc1ccccc1CNCC(=O)Nc1ccccc1-n1cccc1,13,11,-11,-18,4807,9.5,17
CCOCCCNC(=O)C(NC(=O)c1ccc(=O)[nH]c1)c1ccccc1 (configuration not stated),/,/,-1,-3,2333,-5.0,1
COC(=O)c1ccc(C)c(NS(=O)(=O)c2ccc(NC(C)=O)cc2)c1,16,7,0,-9,7396,4.9,7
COc1ccc(NC(=S)N2CCCC2c2ccc(OC)c(OC)c2)cc1 (configuration not stated),5,1,10,-8,5243,1.7,7
CCCSc1ccc(C2C3C(=O)N(C)C(=O)C3[C@]3(C(=O)OC)CCCCN23)cc1OC (some centres not stated),21,12,/,/,/,5.5,5
Cc1nc(-c2ccc(C(=O)O)cc2)cs1,3,5,0,-21,9744,4.7,-4
Cc1csc(=O)n1CCC(=O)OCC(=O)Nc1ccc(C(N)=O)cc1,6,9,-3,-14,/,-0.3,-1
CCOc1cccc(CN2CCN(CCc3ccccc3)C(CCO)C2)c1O (configuration not stated),-4,10,-1,-3,3169,0.8,1
CCCCNC(=S)N(CCCO)Cc1cc2cc3c(cc2[nH]c1=O)OCCO3,14,1,1,-4,4153,4.3,16
O=c1cc(-c2ccco2)nc(-c2cccs2)o1,10,4,-10,-5,3135,5.1,2
O=C(COC(=O)c1ccc2ncsc2c1)NCc1ccccc1Cl,6,6,/,-10,5576,9.2,5
CC(Cn1nnc([N+](=O)[O-])n1)=NNC(=O)c1ccc(O)cc1,16,6,/,/,/,-3.2,7
O=C(CCNC(=O)C1CCN(S(=O)(=O)c2ccccc2)CC1)Nc1cccc(C(F)(F)F)c1,5,-13,-3,-13,6665,-0.2,-3
CCOc1ccccc1NC(=O)CSc1ccc2nnc(-c3cccnc3)n2n1,-1,-3,-16,-9,3206,3.5,4
COC(=O)c1ccccc1NC(=O)Oc1ccc(C(C)C)cc1,1,-2,7,-32,24059*,9.8,81
Clc1cccc(C2Nc3cccc4cccc(c34)N2)c1Cl,1,5,-9,-3,2939,-4.9,-12
N#Cc1nc(-c2ccccc2F)oc1NCCN1CCOCC1,/,/,1,-3,6149,-0.2,-1
O=C1NCCCCC1NS(=O)(=O)c1cccc(C(F)(F)F)c1 (configuration not stated),-5,-7,-13,-25,3552,-0.9,-6
Cc1ccccc1C(=O)Nc1c(C(=O)N(CCN(C)C)Cc2ccco2)oc2ccccc12,/,/,3,-14,4798,/,/
Cc1cc(C)n(-c2nnc3n2N=C(c2ccccc2)CS3)n1,6,-5,5,-5,9303,2.5,-4
CC(=O)Nc1cccc(N(C(=O)C2COc3ccccc3O2)C(C(=O)NC2CCCCC2)c2cn(C)nc2C)c1 (configuration not stated),-4,7,-9,-72,4620,3.2,1
Cc1ccc(C(=O)Oc2oc(-c3ccco3)nc2C=Nc2ccc(Cl)cc2)cc1,/,/,3,-42,2986,-4.3,1
Cc1cc(C)cc(OCCNC(=O)c2ccc(Br)cc2)c1,10,9,-8,2,3412,3.6,0
COc1ccc(CC(=O)N2CCc3ccccc32)cc1,/,/,-5,-66,3680,2.4,0
COc1ccc(CCn2c(C)cc(C(=O)CN3C(=O)C(=O)N(C4CCCC4)C3=O)c2C)cc1OC,-1,13,/,-20,?,-0.9,-1

Assay outcomes from PubChem.
